# VACV mCherry inh = vaccinia inhibition (mCherry reporter); Vaccinia virus mCherry reporter infection, fluorescence; about a quarter of the inactives have no number; Potency, µM (doses to about 36.5 µM), without a hit: top-dose activity change, negative = inhibition, actives largely listed as inhibitors; actives 0.63% (n = 310,000); AID 720579; active = well fitted inhibition curve with a large enough effect; inconclusive = small, poorly fitted or top-dose-only effect; inactive = no such curve, though single readings can be large or run the other way; tested in A549 cells; further: nearly all actives have a fitted effect of over 35% in size; inactives centre near -10
# VACV Venus inh = vaccinia inhibition (Venus reporter) | Vaccinia virus Venus reporter expression, fluorescence | Potency, µM (highest dose often 36.5 µM), without a hit: top-dose activity change, negative = inhibition, actives largely listed as inhibitors | actives 0.46% (n = 330,000); active means well fitted inhibition curve with a large enough effect; inconclusive means small, poorly fitted or top-dose-only effect; inactive means no such curve, though single readings can be large or run the other way; tested in A549 cells; further: nearly all actives have a fitted effect of over 30% in size; inactives centre near -10
# * hit, by the source's call; i = inactive; u = inconclusive; x = not tested or not shown; & = joins results of further samples; [ ] = dose if it differs, or a comment. On the % scale 0 is the no-effect control and ±100 the full control effect; potency means the concentration at half of the fitted maximal effect. Hits appear at their usual frequency; about 0.82% have a hit in one of these screens.
smiles	VACV mCherry inh	VACV Venus inh
CC(C)C[C@@H](CC#N)N1CCN(CCc2ccccc2)CCC1=O	-9%	-5%&-4%
CC(=O)c1ccc(NC(=O)C2CCCN(S(=O)(=O)c3cn(C)cn3)C2)cc1 (stereo unspecified)	-13%	-7%
CC1CCC(C(C)C)C(OCC(O)CNC(C)c2ccccc2)C1 (stereo unspecified)	10µM*	10µM*
O=C(NCc1cccc(Cl)c1)NCc1cccc(Cl)c1	i	-14%
CC(C)(C)n1ncc(Oc2ccccc2[N+](=O)[O-])c(Cl)c1=O	-4%	-14%
CCN(C(=O)COC(=O)/C(C#N)=C/c1cc(C)n(CCOC)c1C)c1c(N)n(Cc2ccccc2)c(=O)[nH]c1=O	i	-13%
COc1ccccc1CNC(=O)COC(=O)CSc1ccc(Cl)cc1	i	-10%
CCC(O)c1cc2c(cc1NC(=O)c1ccc(C)cc1)OCCO2 (stereo unspecified)	x	-16%
COc1ccc(C(=O)NCc2cccnc2)cc1Br	-7%	-1%
O=C(CN(C(=O)CNC(=O)c1ccco1)c1ccc2c(c1)OCO2)NC1CCCCC1	-14%	2%
CO/N=C/c1c(-c2ccccc2)nn(C)c1Cl	-10%	-11%
Cc1ccccc1OCCC(=O)NCCc1ccc(S(N)(=O)=O)cc1	i	-20%
O=C(NNC(=S)Nc1ccc(Cl)cc1)c1ccccc1OC(F)F	13µM*	u
O=C(Nc1cccc(-n2cnnn2)c1)c1ccc(OC(F)(F)F)cc1	i[7.34 µM]	-15%[7.34 µM]
COc1ccc(N2C(=O)CCC(C(=O)N3CCCCC3)C2c2ccc(F)cc2)cc1 (stereo unspecified)	x	1%

# Whole records, looked up by structure. Values in the order: VACV mCherry inh	VACV Venus inh
# O=C(NCc1cccc(Cl)c1)NCc1cccc(Cl)c1 in the list: i	-14%
# CC(C)C[C@@H](CC#N)N1CCN(CCc2ccccc2)CCC1=O in the list: -9%	-5%&-4%
# O=C(CN(C(=O)CNC(=O)c1ccco1)c1ccc2c(c1)OCO2)NC1CCCCC1 in the list: -14%	2%
# Cc1ccccc1OCCC(=O)NCCc1ccc(S(N)(=O)=O)cc1 in the list: i	-20%
# CCN(C(=O)COC(=O)/C(C#N)=C/c1cc(C)n(CCOC)c1C)c1c(N)n(Cc2ccccc2)c(=O)[nH]c1=O in the list: i	-13%

# The listing picks up, starting 2 compounds before the break.
smiles	VACV mCherry inh	VACV Venus inh
O=C(Nc1cccc(-n2cnnn2)c1)c1ccc(OC(F)(F)F)cc1	i[7.34 µM]	-15%[7.34 µM]
COc1ccc(N2C(=O)CCC(C(=O)N3CCCCC3)C2c2ccc(F)cc2)cc1 (stereo unspecified)	x	1%
CCOc1ccccc1N1CCN(CC(=O)Nc2cc(C)on2)CC1	-5%	-15%
C=CCn1c(=N)n(CC(=O)OC)c2ccccc21	x	-1%
CN1CCN(C(=O)Nc2ccccc2)CC1	i	6%
COc1ccccc1CNC(=O)Cn1nnc(-c2ccncc2)n1	-17%	-7%
CCc1cccc(CC)c1NC(=S)N1CCn2cccc2C1c1ccncc1 (stereo unspecified)	i	-5%
O=C(O)c1ccccc1-c1cccc2nncn12	10%	7%
O=S1(=O)c2ccccc2N=NN1Cc1ccc(Cl)cc1	-3%	-7%
CC(C)OCCCn1c(SCc2ccccc2C#N)nc2c(sc3ccccc32)c1=O	-4%	-2%
CCCn1cc(S(=O)(=O)c2ccc(C)cc2)c(=O)c2cc(OCC)ccc21	-5%[7.34 µM]	-19%[7.34 µM]
CC(C)c1nnc(NC(=O)CCC(=O)N2CCN(Cc3ccc(F)cc3)CC2)s1	i	-14%
OCCc1ccccc1	-12%	-6%
CC(=O)NCCNc1nc2c(-c3cccc(C(F)(F)F)c3)nnn2c2ccccc12	i	-10%
CCc1cc(=O)oc2cc(C)cc(OC(C)C(=O)NCc3cccnc3)c12 (stereo unspecified)	-13%[7.34 µM]	-5%[7.34 µM]
C[C@@H]1OC(OC2C(OC3CC[C@@]4(C)C5CC=C6C7CC(C)(C)CC[C@@]7(C(=O)O)CCC6(C)C5(C)CCC4[C@]3(C)CO)OCC(O)C2O)C(O)C(O)C1O (stereo partly specified)	u	u
CC1=C(C(=O)OC2CCCCC2)C(c2ccccc2F)NC(=O)N1 (stereo unspecified)	-19%	-14%

smiles	VACV mCherry inh	VACV Venus inh
COc1ccc(C(CC(=O)O)NC(=O)C(c2ccccc2)c2ccccc2)cc1 (stereo unspecified)	i	0%
Cc1cc(NS(=O)(=O)c2ccc(NC(=S)NC(=O)c3ccc(C(C)(C)C)cc3)cc2)no1	-7%	-19%
Nc1ccc(Sc2ccc(N)cc2)cc1	-16%	8%
CCOCC(=O)Nc1ccc(OCc2ccccc2)cc1	-10%	-9%
CC(C)OC(=O)CNc1n[nH]c(=S)[nH]c1=O	-5%	3%
CC1=C(C(=O)N2CCOCC2)CC(CC(=O)NCc2ccco2)C(=O)N1Cc1ccccc1 (stereo unspecified)	13%	-19%
COc1cc(CNc2ncnc3c2ncn3[C@H]2CN(Cc3ccco3)C[C@@H](CO)O2)cc(OC)c1OC	8%	7%
CN(C)c1ccc(C2C=C(c3ccccc3)Nc3nnnn32)cc1 (stereo unspecified)	-8%	-9%
COc1ccc(S(=O)(=O)N2CCC(CN3C(=O)c4cccc5cccc(c45)C3=O)CC2)cc1	-5%	-4%
Cc1ccc(-c2csc(/C(C#N)=C/Nc3ccccc3SC(F)(F)F)n2)cc1	-12%	u
CCCn1c(SCC(=O)NC2CCCC2)nnc1-c1cccnc1	-11%	-8%
CC(C(=O)NCCc1ccc(S(N)(=O)=O)cc1)N1C(=O)CC(C)(C)Sc2ccccc21 (stereo unspecified)	-8%	-5%
CCn1c(SCC(=O)NC2CC2)nnc1-c1ccccn1	i	-11%
COc1ccc(S(=O)(=O)Nc2ccc(S(=O)(=O)Nc3ccc(F)cc3)cc2)cc1C	-13%	u
COc1ccccc1NC(=O)CSC1=NCCN1	i	-11%

smiles	VACV mCherry inh	VACV Venus inh
CCN(CC)c1ncnc2sc3c(c12)CCC3	x	-18%
Nc1cccn2c(-c3ccc(Cl)c(Cl)c3)cnc12	u	18%
O=C(Oc1coc(CSc2nnc(NC(=O)C3CC3)s2)cc1=O)c1c(F)cccc1F	u	5%
COc1ccc(/C=C/C(=O)N2c3ccccc3Sc3ccc(C(F)(F)F)cc32)cc1	i	-13%
COC(=O)c1ccc2nc(C3CCCCC3)c3c(c2c1)CCC3	-28%	-16%
CC(NC(=O)CSc1nc2c(c(C(F)(F)F)n1)CCc1ccccc1-2)c1ccccc1 (stereo unspecified)	5%[1.46 µM]	u
O=C(Cc1cccs1)Nc1ccc(S(=O)(=O)Nc2ncccn2)cc1	x	-23%
O=C(CN1CCN(CC(=O)c2ccc(Cl)cc2)CC1)c1ccc(Cl)cc1	-13%	-7%
OCCN1CCN(c2ncnc3c2ncn3[C@H]2CN(Cc3ccc(F)cc3)C[C@@H](CO)O2)CC1	-16%	0%
CCOC(=O)[C@]12CCC=C1N(Cc1ccco1)C(=O)[C@H](CC(=O)NCC1CCCCC1)C2	i	-3%
COc1ccc(Cl)cc1C(=O)N/N=C/c1ccc(N2CCOCC2)cc1	-2%	8%
O=C(Cc1ccc(-n2c(=O)[nH]c3ccsc3c2=O)cc1)N1CCN(c2ccc(Cl)cc2)CC1	-9%	-29%
O=C(Nc1nccs1)C(NS(=O)(=O)c1ccc(Br)s1)c1ccccc1 (stereo unspecified)	x	-22%
CCC(C)c1ccc(NC(=O)c2cccs2)cc1 (stereo unspecified)	-26%	-21%
O=C(Oc1cccc([N+](=O)[O-])c1)C1CCN(C(=O)c2ccc(F)cc2)CC1	-8%	-13%

smiles	VACV mCherry inh	VACV Venus inh
O=C1O[C@@H](c2ccccc2)C[C@@H](O)C(=O)CCc2ccccc21	3%	1%
O=C(c1cc2cc(Br)ccc2o1)N1CCN(c2ccccc2)CC1	i	-6%
C=CCn1c(SC)nnc1C1COc2ccccc2O1 (stereo unspecified)	i	-9%
O=C(NC1CCN(C(=S)NCc2ccco2)CC1)c1cccc(F)c1	8%	-3%
COc1ccc(NC(=O)CN2C(=O)NC(C)(c3ccccc3)C2=O)cc1Cl (stereo unspecified)	22%	-1%
Cn1nnnc1SCC(=O)NCCCc1ccccc1	i	-14%
N#CC(=C(O)COC(=O)CCCNC(=O)c1ccc(Cl)cc1)c1nc2ccccc2[nH]1	5%	22%
CC(=O)Nc1ccc(Nc2nc(C)cc(C)n2)cc1	i	-14%
O=S1(=O)[C@H]2C[C@@H]3C=C[C@@]2(CN1Cc1cccc(Cl)c1)O3	-17%&-29%	u
COc1ccc(S(=O)(=O)N2CCOCC2)cc1NC(=O)CN1C(=O)NC(C)(C2CC2)C1=O (stereo unspecified)	-12%	-5%
NC(=O)CSc1nc2scc(-c3ccco3)c2c(=O)n1-c1ccccc1	-14%	2%
CCOC(=O)C(C(C)=O)C(c1ccc(OCCC(C)C)cc1)C(C(C)=O)C(=O)OCC (stereo unspecified)	-9%	-16%
O=C(NCc1ccc2c(c1)OCO2)c1cc(-c2ccccc2Cl)on1	i	-7%
COCCNC(=O)C(c1ccc(C)o1)N(C(=O)c1snc(C(N)=O)c1N)c1cccc(C)c1 (stereo unspecified)	-10%	-16%
CC(=O)c1cccc(NC(=O)CNC(=O)Cc2cccc3ccccc23)c1	-1%	0%

# In the list so far, 2 have a tert-butyl group:
smiles	VACV mCherry inh	VACV Venus inh
CC(C)(C)n1ncc(Oc2ccccc2[N+](=O)[O-])c(Cl)c1=O	-4%	-14%
Cc1cc(NS(=O)(=O)c2ccc(NC(=S)NC(=O)c3ccc(C(C)(C)C)cc3)cc2)no1	-7%	-19%

# (list continues)
smiles	VACV mCherry inh	VACV Venus inh
Cc1onc(-c2ccccc2)c1C(=O)N1CCCSC1=Nc1ccccc1	-3%&-24%	-7%&-16%
c1csc(Cn2nnnc2CN2CCN(c3nc4ccccc4s3)CC2)c1	u	u
CCCCOc1ncnc2c1[nH]c1ccc(C)cc12	i	-14%
CCCN(C(=O)c1cn(CC)c2nc(C)ccc2c1=O)c1c(N)n(Cc2ccccc2)c(=O)[nH]c1=O	-5%	-4%
CC(NCc1cccs1)C(=O)Nc1cc(Cl)cc(Cl)c1 (stereo unspecified)	20%	4%
O=C(COC(=O)c1ccccc1OCc1cccc(Br)c1)Nc1ccc(Br)cc1	-7%	-17%
COc1ccc(-c2c(C)nn(-c3ccccc3)c2N)cc1OC	-2%	-8%
CN(C(=O)CSC1=NCCS1)c1ccccc1	x	-28%
CCc1c(C)nc2c(-c3ccccc3OC)c(C)[nH]n2c1=O	i	-14%
NC1=C([N+](=O)[O-])C(c2ccccc2)C2=C(CCCC2=O)O1 (stereo unspecified)	i	1%
COc1ccccc1[C@H]1C(c2cccc(C)c2)=NN(c2ccccc2)[C@@H]1CO	-19%	u
Fc1ccc(Cn2nnc3ccccc32)cc1	-12%	-19%
CN(Cc1ccccc1)c1ncnc2ccc(Br)cc12	u	-29%
NS(=O)(=O)c1ccc(CCNc2nc(CN3CCOCC3)nc3sc4c(c23)CCC4)cc1	16%	8%
COCCNC(=O)c1cc2c(=O)n(C)c3ccccc3c2n1C	-8%	-5%

smiles	VACV mCherry inh	VACV Venus inh
CN(C)S(=O)(=O)c1ccc(N2CCCC2)c(C(=O)NNC(=O)c2ccc(Br)cc2)c1	-4%	-1%
Cc1ccc(C(=O)N/N=C/c2cccc3ccccc23)cn1	-2%[7.34 µM]	-10%[7.34 µM]
Brc1cc2c(cc1CSc1ncccn1)OCO2	-6%	-7%
Nc1nc(Nc2ccc(Cl)cc2Cl)nc(C(F)(F)F)n1	x	u
COc1cc(OC)c(NC(=O)N2CCCn3nc(C)cc32)cc1Cl	-10%	-6%
Cn1cc(C(=O)Nc2ccc(F)c(Cl)c2)cn1	0%	-19%
CS(=O)(=O)c1ccc(C(=O)NNC(=O)c2cc(-c3ccccc3)n[nH]2)cc1	-15%	-3%
CC(=O)c1cccc(CN2CCCC(CCC(=O)NCc3ccccc3F)C2)c1 (stereo unspecified)	2%	6%
Cc1cc(N(C)Cc2ccccc2)nc2cc(O)ccc12	-17%	-7%
CN1CCN(C(=O)C2=C[C@H](c3coc4ccccc4c3=O)C[C@H](OCCCCO)O2)CC1	i	-9%
COc1ccc(C2c3c(n(C)c4ccccc34)C(=O)N2CC(=O)Nc2ccc(Cl)cc2)cc1 (stereo unspecified)	0%	-9%
COc1ccc(Cn2ccnc2SCC(=O)Nc2cccc(NC(C)=O)c2)cc1	-1%	-2%
CC(=O)c1cc2c(cc1N/C(=N/S(=O)(=O)c1ccc(Br)cc1)c1ccccc1)OCO2	-10%&-19%	-11%&-18%
Cc1ccc(C)c(CN2C(=O)c3ccccc3S(=O)(=O)c3ccc(C(=O)N4CCCCCC4)cc32)c1	-28%	u
CCCCN(Cc1ccccc1)S(=O)(=O)c1ccc2[nH]c(=O)oc2c1	x	-4%
Nc1ccc(S(=O)(=O)NNC(=O)C(=O)NNc2ccccc2)cc1	-14%	-7%

# Screening results deposited in PubChem BioAssay by National Center for Advancing Translational Sciences (NCATS).
